High-throughput results (PubChem BioAssay)
Sfp PPTase inh: qHTS Assay for Inhibitors of Bacillus subtilis Sfp phosphopantetheinyl transferase (PPTase) | Biochemical Sfp PPTase activity, qHTS | Potency, µM, inactives show max response, negative = inhibition, hits mostly inhibitors | hit rate 3.5% among 310,000; active = well fitted inhibition curve with a large enough effect; inconclusive = small, poorly fitted or top-dose-only effect, or another doubt; inactive = no such curve, though single readings can be large or run the other way;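 note: the enzyme is Sfp with the accession as filed and its product quenches rhodamine fluorescence; potency is the fitted concentration of half-maximal effect; 0% = enzyme reaction without inhibitor and -100% = no enzyme wells; top concentration of the series not given in the record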
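With Hepes-Na pH 7.6 buffer containing 10 mM MgCl2, Sfp (15 nM) modified BHQ-2-YbbR (12.5 uM) using rhodamine-CoA (5 uM). Two reads 30 minutes apart at 525/598 nm yielded each well's rate.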
PINK1 modulator: A Quantitative High throughput Screen to Identify Chemical Modulators of PINK1 Expression; Potency, µM (highest dose often 76.6 µM), for the others: top-dose activation (PINK1 increase), usual class: activators; PINK1 immunofluorescence, high-content cytometry, 24 h; hit rate 0.2% among 410,000; AID 624263, 2012; active = well fitted activation curve with a large enough effect; inconclusive = small, poorly fitted or top-dose-only effect; inactive = flat fitted curve, though single readings scatter; cell line not stated here;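 note: potency is the fitted concentration of half-maximal effect; % of control where 0% means no effect; nearly all actives have a fitted effect of over 65% in size; a mitochondrial uncoupler was the plate control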
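Stable cell line, 250 cells/well, 12 h attachment; compounds pinned at 5 concentrations, 24 h; CCCP control. Fixed with nuclear dye, primary antibodies 12 h at 10 degrees C, secondary plus cell stain; laser-scanning cytometer read.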
D2 agonist: Beta-Arrestin HTS for Positive Allosteric Modulators of the Human D2 Dopamine Receptor: Agonists; D(2) dopamine receptor (Homo sapiens), P14416; DiscoveRx PathHunter D2 beta-arrestin, luminescence, 90 min; 100% = 57 uM dopamine signal; activation, % (no concentration beside the values); hit rate 0.084% among 360,000; AID 624465, 2012; in the data active = activation above about 40%; inconclusive = about 15% to 40%; inactive = below about 15%; note: compound concentration not given in the record; the text of the record calls up to 30% inactive
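DiscoveRx PathHunter D2 beta-arrestin cells (2,100/well) attached overnight, then compound-stimulated 90 min at 37 C in HBSS/10 mM HEPES/0.1% Tween-20 buffer; beta-galactosidase complementation read by luminescence after 1 h at ambient temperature. Dopamine 57 uM final (EC100) as control.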
CtBP-E1A blk: qHTS Assay for Inhibitors of the CtBP/E1A Interaction. activity change, % (concentration not given with the values). hit rate 0.49% among 340,000. AlphaScreen GST-E1A/His-CtBP binding, 1536-well; active compounds read low; control for the full effect not named in the record. CtBP / adenovirus E1A interaction (AlphaScreen); in the data active means activity change below about -65%; inconclusive means about -30% to -65%; inactive means above about -30%; note: % is set by controls: 0 for no effect and ±100 for the full control effect
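Steps: dispense buffer (Tris pH 8.0, NaCl 300 mM, TCEP 1 mM, BSA, Tween 20); add 5X protein mix (GST-E1A, His-CtBP, 125 nM each); pin 23 nL compound; 2 h at 37 °C, dark; add 5X beads (50 ug/mL); 1 h; read.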
TRPV1 potentiator: HTS Assay for Compounds that Act as Potentiators of the Vanilloid Receptor 1 | AID 540277, 2011 | potentiation, % at 8.33 µM | Transient receptor potential cation channel subfamily V member 1 (Homo sapiens), Q8NER1 | TRPV1-expressing cells, Fluo-8 calcium influx, capsaicin EC20 potentiation; host cell line not named in the record; control for the full effect not named in the record | hit rate 0.02% among 320,000; active means potentiation above 80%; inconclusive means 30% to 80%; inactive means below 30%; note: 0% is about no effect
Target sequence (Q8NER1 whole entry, looked up): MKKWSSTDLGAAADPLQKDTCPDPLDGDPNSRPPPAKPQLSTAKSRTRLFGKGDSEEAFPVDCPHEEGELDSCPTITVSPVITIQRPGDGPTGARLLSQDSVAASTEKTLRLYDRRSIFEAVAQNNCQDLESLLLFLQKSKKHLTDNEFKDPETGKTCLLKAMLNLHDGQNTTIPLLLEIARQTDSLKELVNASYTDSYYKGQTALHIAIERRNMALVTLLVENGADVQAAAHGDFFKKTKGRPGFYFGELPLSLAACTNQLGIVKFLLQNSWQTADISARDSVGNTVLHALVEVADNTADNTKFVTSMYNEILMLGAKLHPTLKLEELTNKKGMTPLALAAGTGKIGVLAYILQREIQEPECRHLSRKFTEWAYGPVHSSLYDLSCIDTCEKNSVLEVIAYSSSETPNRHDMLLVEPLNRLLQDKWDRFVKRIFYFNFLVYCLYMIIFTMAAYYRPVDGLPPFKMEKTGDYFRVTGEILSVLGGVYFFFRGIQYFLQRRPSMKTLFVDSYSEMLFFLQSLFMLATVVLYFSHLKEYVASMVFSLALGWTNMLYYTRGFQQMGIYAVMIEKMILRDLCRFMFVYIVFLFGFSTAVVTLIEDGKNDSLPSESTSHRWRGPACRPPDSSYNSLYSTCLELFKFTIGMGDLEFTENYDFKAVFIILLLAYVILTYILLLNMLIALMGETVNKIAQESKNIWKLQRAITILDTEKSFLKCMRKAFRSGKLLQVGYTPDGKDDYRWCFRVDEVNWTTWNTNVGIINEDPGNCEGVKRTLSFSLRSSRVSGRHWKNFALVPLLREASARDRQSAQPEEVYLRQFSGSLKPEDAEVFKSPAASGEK
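TRPV1-expressing cells were cultured overnight at 35.5C and loaded with Fluo-8 calcium dye for 40 to 90 min at room temperature. After a 10 s baseline, compound was added and calcium influx was read kinetically for 3 min (ex 480/em 520 nm).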
Six1-Eya2 blk: qHTS Assay for Inhibitors of the Six1/Eya2 Interaction; AlphaScreen GST-Six1/His-Eya2 binding, biochemical; active compounds read low; control for the full effect not named in the record; Homeobox protein SIX1 (Homo sapiens) + Protein phosphatase EYA2 (Homo sapiens), …; activity change, % (no concentration beside the values); hit rate 0.56% among 360,000; in the data active = activity change below about -65%; inconclusive = about -30% to -65%; inactive = above about -30%; note: % is set by controls: 0 for no effect and ±100 for the full control effect
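Compounds are tested against tagged Six1 and Eya2 proteins bridged by glutathione donor and nickel acceptor beads; after a one-hour incubation at 37 °C without light, AlphaScreen emission is recorded.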
D2 PAM: Beta-Arrestin HTS for Positive Allosteric Modulators of the Human D2 Dopamine Receptor: Potentiators. D(2) dopamine receptor (Homo sapiens), P14416. potentiation, % (test concentration not listed). DiscoveRx D2 beta-arrestin cells, luminescence, 90 min; 100% = 57 uM dopamine signal. AID 624464, 2012. hit rate 0.23% among 360,000; active = potentiation of 50% or more; inconclusive = 30% to 50%; inactive = 30% or less;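 note: compound concentration not given in the record; tested on top of an EC20 dose of dopamine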
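PathHunter D2 cells, attached overnight at 37 deg C, received compound in DMSO plus dopamine at EC20 (50 nM final) for 90 min at 37 deg C. Beta-arrestin recruitment was read as luminescence after 1 h with detection reagent at ambient temperature.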
* = called active by the depositor; u = inconclusive; x = no result given; & = joins results of further samples; [ ] = dose if it differs, or a comment. Compounds as they come (roughly 3.7% active in at least one column).

SMILES	Sfp PPTase inh	PINK1 modulator	D2 agonist	CtBP-E1A blk	TRPV1 potentiator	Six1-Eya2 blk	D2 PAM
Cc1sc2ncn(CC(=O)NCC(=O)N(C)C3CCCCC3)c(=O)c2c1C	11.8%	-2.5%[38.3 µM]	0.6	-1.5	5.3	3.7	-6.2
O=C(NCCCN1CCCCC1)c1ccc2c(c1)NC(=O)C(N1CCOCC1)S2 (stereo not drawn)	6.6%	7.1%[38.3 µM]	-1.5	2.0	-1.9	0.9	-20.5
COc1ccccc1N(CC(=O)NC1CCCC1)C(=O)c1oc(C(C)(C)C)cc1C	10.8%	-2.0%	0.2	0.0	-13.7	-2.6	-10.3
NS(=O)(=O)c1ccc(CCNS(=O)(=O)c2ccc(Cl)s2)cc1	x	-0.3%	0.0	x	x	5.2	20.7
O=c1ccn(Cc2ccccc2)c2ccccc12	-16.9%	0.9%	-3.0	4.0	u	1.6	-9.6
Cc1cc(OCC(=O)NCc2ccccn2)cc(C)c1Br	13.2%	2.5%	1.2	-5.7	-6.4	8.9	-8.7
CCOc1cccc(=O)c2c(C)n(CC(=O)c3ccccc3)c(C)c12	-24.1%	1.6%	-3.1	10.8	-7.0	-15.9	0.1
Cn1nccc1/C=N\NC(=O)c1ccc(Cl)cc1	9.8%	-0.5%	-3.4	6.8	1.3	5.8	-31.8
O=C(NCc1ccco1)c1cccc(S(=O)(=O)N2CCCCC2)c1	-10.3%	2.6%	-0.5	-0.5	-0.2	-8.5	-20.3
O=c1c2cc(Cl)ccc2[nH]c(=S)n1Cc1ccco1	-23.6%	u	0.3	2.5	u	-4.5	-16.0
Cc1cc(C)nc(N2CCN(c3ncnc4c3cnn4Cc3ccc(Cl)cc3Cl)CC2)n1	5.0%	7.5%	-5.0	5.0	7.2	0.6	16.9
COc1cccc(NC(=O)CN(C)CC(=O)Nc2ccc(Cl)cc2[N+](=O)[O-])c1	-34.1%	-0.2%	u	1.3	-13.6	-10.6	22.0
Nc1nnc(SCc2nnc(-c3ccccc3)o2)s1	25.0%	-0.3%	1.0	x	2.4	-3.1	-0.2
N/C(Cc1ccc([N+](=O)[O-])cc1)=N\OC(=O)c1ccc(Br)cc1	-7.4%	-0.5%	u	-7.5	-7.7	-16.9	170.8*
Cc1ccc(C(=O)Nc2ccccc2Sc2ccccc2)cc1	-20.9%	-2.6%	-7.7	-4.0	14.6	13.0	-11.7
Cc1nc2c(Br)c(C)nn2c2c1CCC2	18.1%	1.6%	2.2	-1.2	28.5	-1.7	1.3
CC(C)c1ccc(NC2CCCN(C(=O)CCc3cn[nH]c3)C2)cc1 (stereo not drawn)	18.9%	0.5%	-2.8	-2.1	-7.5	-5.4	-5.0
O=C(CN1CCN(c2ccccc2F)CC1)c1c[nH]c2ccccc12	4.5%	1.5%	-0.5	-1.9	-2.7	-2.6	-40.3
CS(=O)(=O)c1ccccc1C(=O)Nc1nc2ccccc2[nH]1	-27.7%	-0.8%	3.6	-1.2	2.7	4.9	-11.9
CCOc1ccc(/C(O)=C2\C(=O)C(=O)N(c3cc(C)on3)C2c2ccccc2OC)cc1 (stereo not drawn)	-7.7%	0.7%	-0.3	7.2	-6.6	4.9	14.0
COc1ccccc1C(=O)COC(=O)c1ccccc1O	-14.5%	3.2%	-0.3	11.6	-0.5	0.5	-2.9
COC(=O)C1(C)CCCC2(C)c3cc(OC)ccc3C(=O)C(Br)C12 (stereo not drawn)	x	2.7%	7.0	1.3	x	6.3	1.0
C[C@@H]1CN([C@H](C)CO)C(=O)CCCn2nncc2CO[C@H]1CN(C)S(=O)(=O)c1ccc(-n2cccn2)cc1	x	2.9%	-5.7	-18.7	x	-13.5	-0.5
CC(C)n1nnnc1C(c1ccc(F)cc1)N1CCN(C2CCCC2)CC1 (stereo not drawn)	-9.0%	-1.4%	-1.3	0.9	-7.8	0.2	15.0
Cc1ccc2[nH]c(C(=O)N/N=C/c3ccc([N+](=O)[O-])cc3)c(C)c2c1	-5.1%	5.6%	6.0	x	5.3	-8.6	-5.7
COc1cnn(-c2ccc(F)cc2)c(=O)c1Br	16.9%	0.2%	-3.0	5.4	12.9	0.8	-1.4
Cn1cc(C(=O)O)c(-c2ccc3c(c2)OCCCO3)n1	7.6%	0.6%	-4.7	3.1	13.1	12.0	-5.4
CN(C)S(=O)(=O)c1cccc(NC(=O)COC(=O)c2cc3ccccc3oc2=O)c1	16.0%	0.2%	-0.6	-8.5	-1.1	-9.8	-2.0
COc1cccc(CN(C)C(=O)C2CCCN(C(=O)c3ccc(Cl)cc3)C2)c1 (stereo not drawn)	x	3.3%	-2.7	1.9	x	-4.1	2.3
CCCCCCCN1CCC(=O)N(CCO)CC1	2.8%	1.6%	-3.7	8.0	0.9	7.7	-9.6
CC(C)(C)OC(=O)[C@H](CCCCN)NC(=O)c1[nH]cnc1C(=O)N[C@@H](Cc1ccccc1)C(=O)OCc1ccccc1	x	-1.1%	-4.4	-9.1	x	-8.7	-28.0
COc1cc(-c2cc(=O)c3c(O)c(OC)c(OC)cc3o2)cc(OC)c1O	13.0%	3.1%	14.6	u	-0.5	u	11.7
CCOc1ccc(CSC(CC(=O)O)C(=O)O)cc1 (stereo not drawn)	-6.1%	1.8%	2.5	1.2	u	7.8	-5.7
COc1ccc(NC(=S)N(CCCN2CCOCC2)C(C)c2cc3ccccc3o2)cc1 (stereo not drawn)	5.5%	-0.4%	-1.4	4.7	10.0	-11.4	-18.5
O=C(CSc1nnc(COc2ccccc2)o1)N1CCN(c2ccccc2)CC1	-5.3%	2.6%[38.3 µM]	0.4	0.0&0.0	27.0	-0.3&9.0	-0.1&3.0
COCCN(CCOC)c1cc(C)c(C#N)c2nc3ccccc3n12	22.2%	5.3%	-4.2	-0.1	-28.4	-2.8	-11.4

Already shown: an excerpt of the list.
SMILES	Sfp PPTase inh	PINK1 modulator	D2 agonist	CtBP-E1A blk	TRPV1 potentiator	Six1-Eya2 blk	D2 PAM
COc1cc(-c2cc(=O)c3c(O)c(OC)c(OC)cc3o2)cc(OC)c1O	13.0%	3.1%	14.6	u	-0.5	u	11.7
CCOc1ccc(CSC(CC(=O)O)C(=O)O)cc1 (stereo not drawn)	-6.1%	1.8%	2.5	1.2	u	7.8	-5.7
COc1ccc(NC(=S)N(CCCN2CCOCC2)C(C)c2cc3ccccc3o2)cc1 (stereo not drawn)	5.5%	-0.4%	-1.4	4.7	10.0	-11.4	-18.5
O=C(CSc1nnc(COc2ccccc2)o1)N1CCN(c2ccccc2)CC1	-5.3%	2.6%[38.3 µM]	0.4	0.0&0.0	27.0	-0.3&9.0	-0.1&3.0
COCCN(CCOC)c1cc(C)c(C#N)c2nc3ccccc3n12	22.2%	5.3%	-4.2	-0.1	-28.4	-2.8	-11.4

The listing continues:
SMILES	Sfp PPTase inh	PINK1 modulator	D2 agonist	CtBP-E1A blk	TRPV1 potentiator	Six1-Eya2 blk	D2 PAM
Cn1nccc1C(=O)N1CCN(S(=O)(=O)c2ccc(Br)s2)CC1	3.8%	-1.3%	-4.9	0.0	-9.2	25.0	-17.1
OC(COc1ccc2ccccc2c1)CN1CCOCC1 (stereo not drawn)	11.8%	-1.1%&0.5%	-1.0&-1.2	10.7&-0.8	-6.2	1.5&-0.9	-14.3&-17.6
COc1ccc(CNC(=O)CNS(=O)(=O)c2cccc(C#N)c2)cc1OC	-0.9%	-1.2%	-0.9	8.9	-0.9	10.9	-2.1
Cc1cc(Oc2cc(NN3CCCCC3)c([N+](=O)[O-])cc2[N+](=O)[O-])c(C(=O)c2ccccc2)cc1Cl	0.7%	6.5%	-4.0	-26.5	-10.1	u	-0.8
CC(=O)c1ccc(S(=O)(=O)N(C)CCCC(=O)NCc2ccc3c(c2)OCO3)cc1	x	0.9%	-1.4	-2.1	5.0	-8.0	-23.9
C[C@H]1CN([C@@H](C)CO)C(=O)c2cc(NC(=O)NC3CCCCC3)ccc2O[C@H]1CN(C)C(=O)Nc1ccc(C(F)(F)F)cc1	x	-0.6%	4.9	24.8	x	16.6	1.0
CCc1ccc(NC(=O)C2(c3ccccc3)CC2(Cl)Cl)cc1 (stereo not drawn)	0.5%	3.3%	0.5	5.7	-0.9	14.3	-10.3
O=S(=O)(c1ccc(OCC(O)CN2CCN(c3ccc(F)cc3)CC2)cc1)N1CCOCC1 (stereo not drawn)	9.8%	x	13.4	2.3	1.4	-0.6	-10.2
O=C(O)CCC1COc2ccccc2O1 (stereo not drawn)	14.8%	5.1%[38.3 µM]	0.4	4.5	-0.3	3.8	-8.8
O=C(Cn1cccc(C(F)(F)F)c1=O)c1ccc(Cl)cc1	9.6%	0.4%	-2.0	u	x	3.8	-26.4
CCc1ccc(CN(C)C(=O)c2cccc(S(=O)(=O)Nc3ccccc3OC)c2)cc1	x	0.1%	0.5	-2.7	-20.3	-3.7	-6.0
COC(=O)Cn1c(=NC(=O)c2ccc(OC)c(OC)c2)sc2cc(OC)ccc21	0.0%	7.9%	0.6	8.2	4.2	12.6	-8.5
O=C(Nc1ccc(C(=O)NCc2ccc(F)cc2)cc1)C1=CSCCO1	7.0%	2.0%	-0.8	3.5	-8.0	-0.7	-4.3
Cc1nn(C(C)C(=O)O)c(C)c1[N+](=O)[O-] (stereo not drawn)	18.9%	-1.6%	1.4	3.3	6.3	-15.7	-4.2
O=C(O)c1ccccc1-c1nc2ccccc2[nH]1	-4.2%	1.0%	0.7	1.7	15.6	11.2	-1.7
COC(=O)Nc1ccc(S(=O)(=O)N2CCCC(C(=O)N3CCCCCC3)C2)cc1 (stereo not drawn)	28.4%	-0.5%	4.0	-2.1	-6.0	4.9	4.8
